# Screening data as filed in PubChem.
# Sa RN4220 lethal: kills Staphylococcus aureus RN4220. S. aureus RN4220 growth, OD600, 16 h. inhibition, % (no concentration beside the values). actives 0.33% (n = 330,000);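 active = z-score of -3 or lower and OD600 up to 0.18 on both plates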;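 also: plate controls were untreated cells for no effect and reference antibiotic for full effect; stock transfer was 100 nL into about 80 µL; one replicate is shown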
# Autofluor counter: compound fluorescence in toxin protease inhibitor counterscreen; AID 624483; fluorescence intensity (test concentration not listed); actives 3.1% (n = 360,000); compound autofluorescence counterscreen, microsphere flow cytometry; active compounds read high;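 active = at least 3 SD above the mean of all compounds, about 16000 in these data; inconclusive = too few beads counted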;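 also: 100 nL of 1 mM stock went into each well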
# PrP UTR inh: suppresses PrP 5' UTR mRNA reporter expression; AID 488862; actives 0.35% (n = 340,000); cell-based PrP 5' UTR mRNA reporter, plate reader; inhibition, % (test concentration not listed);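 active = every replicate at 50% or more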;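 also: 0 = median of the neutral control wells; tested in H4 reporter cells; numbers are from one replicate; inactives centre near -14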
# BJeLR lethal: kills HRASV12-expressing BJeLR cells; inhibition, % (test concentration not listed); BJeLR (HRASV12) viability, CellTiter-Glo ATP luminescence, 48 h; reference of the scale not given here; actives 0.17% (n = 300,000); AID 1554;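 active = replicate mean above 50%; inconclusive = above 50% but judged a plate artefact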;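 also: 50 nL library stock added to about 25 µL; numbers are from one replicate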
# Mtb hypoxia inh: inhibitors of hypoxia-regulated fluorescent reporter in Mycobacterium tuberculosis; M. tuberculosis hypoxia-regulated fluorescent reporter, fluorescence; fluorescence inhibition, % (no concentration beside the values); actives 0.1% (n = 300,000); AID 1159583;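 active = 35 to 45% if threefold the growth effect, above 45% if 1.5-fold the growth effect; inactive = the rest, general growth blockers included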;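 also: wells of about 50 µL received 100 nL stock; 0% = vehicle wells and 100% = reference inhibitor wells; whole bacteria with a GFP reporter of the hypoxia response; strong numbers were not always called active; many hits fall short of the cut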
# ugtP null kill: growth inhibition of S. aureus ugtP deletion strain; S. aureus RN4220 ugtP deletion, OD600 growth, 16 h; some inactives read as strong as hits; growth inhibition, % (test concentration not listed); actives 0.54% (n = 330,000); AID 1259309;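 active = z-score under -3 and OD600 up to 0.15 on both plates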;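 also: plate controls were untreated wells for no effect and antibiotic for full effect; wells of about 80 µL received 100 nL stock; the first replicate is given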
# Mtb hypoxia inh growth: recorded beside Mtb hypoxia inh, whose call it bears; growth inhibition, %; measured here: M. tuberculosis growth (absorbance);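 0% = vehicle and 100% = reference antibiotic; read after six days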
# * marks the source's active call; other numbers are inactive results; u = inconclusive; x = no result given.
Structure	Sa RN4220 lethal	Autofluor counter	PrP UTR inh	BJeLR lethal	Mtb hypoxia inh	Mtb hypoxia inh growth	ugtP null kill
Cc1ccc(-n2nnc3c(=O)n(CC(N)=O)cnc32)cc1	x	3343	-6.6	-2.4	x	x	x
CC(NC(=O)CN1CCC(C(N)=O)CC1)c1ccccc1 (configuration not stated)	3.0	4221	-1.5	4.9	1.7	-0.2	3.8
O=C(Nc1cccc(F)c1)N1CCC(n2c(=O)[nH]c3ccccc32)CC1	-3.1	4723	-7.0	-6.0	-0.6	5.0	-7.5
CCOc1ccc(/C=N/NC(=O)c2cc3c(OC)cc(OC)cc3[nH]2)cc1OC	x	3395	-13.4	-9.1	x	x	x
CCN(c1ccccc1)S(=O)(=O)c1ccc(Cl)c(NC(=O)COC(=O)c2ccc[n+]([O-])c2)c1	1.6	4288	-10.8	-28.0	9.4	-1.7	6.6
COc1cc(/C=N/NS(=O)(=O)c2ccccc2)c(OC)c(OC)c1	x	3670	-18.9	2.0	x	x	x
Cc1ccc(NC(=O)CN(C)S(=O)(=O)c2ccc3[nH]c(=O)oc3c2)c(C)c1	0.3	5581	0.1	-0.6	-8.9	2.0	0.0
CCn1c(=O)c([N+](=O)[O-])c(Cl)c2ccccc21	6.7	4075	-10.8	4.2	3.5	13.8	11.6
COC(=O)c1ccccc1NC(=O)CSc1nnnn1C1CCCCC1	1.8	3753	-6.3	-5.5	5.3	-3.7	-2.5
CCn1cc(-c2cc(C(F)(F)F)n3nc(C(=O)O)cc3n2)c(C)n1	0.3	2486	-10.5	-3.3	-4.0	1.1	-0.5
Cc1cc(NC(=O)CSc2nnc(N)s2)c([N+](=O)[O-])cc1C	6.6	4160	-10.3	x	10.4	5.0	-1.8
Cc1nn(-c2ccccn2)c2c1C(c1ccccc1Cl)C1=C(N2)c2ccccc2C1=O (configuration not stated)	-7.0	2341	-5.2	-19.6	-4.2	8.3	-20.6
CCC(C)(C)NC(=O)/C=C/c1cc(OC)c(OC)c(S(=O)(=O)N2CCc3ccccc32)c1	4.6	4729	-18.2	-2.5	8.0	-1.7	5.6
CCOc1cc(-c2noc(CCC(=O)Nc3cccnc3)n2)ccc1OC	1.5	7782	-21.2	0.3	9.9	3.7	-1.2
C[C@@]12C(=O)N(c3cccc(Cl)c3)C(=O)N1[C@H](c1ccc(Cl)cc1)[C@@H]1C(=O)N(C3CCCCC3)C(=O)[C@@H]12	x	3132	16.8	0.7	x	x	x
COc1ccc(N2C(=O)CC(Sc3n[nH]c(-c4ccc(C)cc4)n3)C2=O)cc1 (configuration not stated)	8.0	2592	-26.1	-3.9	5.3	2.5	4.1
COC(=O)CN1C(=O)C2C(C=Cc3ccccc3)N3C(=O)CN(Cc4ccccc4)C(=O)[C@@]3(C)C2C1=O (some centres not stated)	8.3	x	x	x	3.0	9.1	10.1
COC(=O)CCCCC1SCC2NC(=O)NC21O (configuration not stated)	x	4177	-20.2	-5.5	x	x	x
CC(C)Nc1nc(Oc2ccc(Cl)cc2Cl)cc(C(F)(F)F)n1	-6.1	u	-22.4	-2.2	18.6	4.2	14.9
CCOc1ccccc1N(CC(=O)NC1CCCCC1)C(=O)CNC(=O)c1ccco1	0.5	3112	-21.8	-0.7	x	x	-2.1
COC(=O)c1cc2sc(Cl)cc2n1CC(=O)NCC1CCCO1 (configuration not stated)	0.6	3590	-25.1	-4.5	9.8	4.3	-1.4
CCN(C(=O)c1cccs1)C1CCS(=O)(=O)C1 (configuration not stated)	1.2	6009	-24.8	-3.9	9.1	10.3	4.4
COc1ccc(NCc2nnc(SCc3ccccc3)n2-c2ccc(OC)cc2)cc1	1.0	9690	-39.5	5.8	4.9	5.3	-0.5
NC(Cc1ccccc1)C(=O)N1CCCCC1 (configuration not stated)	1.6	3076	-12.2	-3.5	-0.4	-6.3	6.9
Cc1nn(C(C)C(=O)NCCCc2ccccc2)c(=O)c2nn(-c3ccccc3)c(C)c12 (configuration not stated)	0.5	5361	2.0	-0.7	10.0	3.4	1.6

# Quoted from the results shown for reference:
Structure	Sa RN4220 lethal	Autofluor counter	PrP UTR inh	BJeLR lethal	Mtb hypoxia inh	Mtb hypoxia inh growth	ugtP null kill
COC(=O)c1cc2sc(Cl)cc2n1CC(=O)NCC1CCCO1 (configuration not stated)	0.6	3590	-25.1	-4.5	9.8	4.3	-1.4
CCN(C(=O)c1cccs1)C1CCS(=O)(=O)C1 (configuration not stated)	1.2	6009	-24.8	-3.9	9.1	10.3	4.4
COc1ccc(NCc2nnc(SCc3ccccc3)n2-c2ccc(OC)cc2)cc1	1.0	9690	-39.5	5.8	4.9	5.3	-0.5
NC(Cc1ccccc1)C(=O)N1CCCCC1 (configuration not stated)	1.6	3076	-12.2	-3.5	-0.4	-6.3	6.9
Cc1nn(C(C)C(=O)NCCCc2ccccc2)c(=O)c2nn(-c3ccccc3)c(C)c12 (configuration not stated)	0.5	5361	2.0	-0.7	10.0	3.4	1.6

# Remaining list, next part.
Structure	Sa RN4220 lethal	Autofluor counter	PrP UTR inh	BJeLR lethal	Mtb hypoxia inh	Mtb hypoxia inh growth	ugtP null kill
Cc1ccccc1C(=O)Nc1ccccc1C(=O)NCC(C)C	x	4435	-5.9	-0.7	x	x	x
O=C(NCCNC1CCC(c2ccccc2)CC1)c1ccc(F)cc1 (configuration not stated)	-3.0	4448	-20.3	-8.6	-12.1	6.3	-1.0
COc1ccccc1C(=O)Nc1ccnn1C1CCN(CCCC2CCCC2)CC1	3.2	6539	2.3	0.1	0.7	9.4	5.5
COc1cc(NC(=S)N2CCC(C(O)(c3ccccc3)c3ccccc3)CC2)cc(OC)c1	-4.8	2879	-10.9	-1.4	4.4	10.6	7.4
O=C(COC(=O)/C=C/c1cccc(F)c1)Nc1ccccc1-c1ccccc1	1.5	2317	-19.8	-17.4	0.1	3.2	0.5
O=C(COC(=O)C1=COCCO1)Nc1cc(C(F)(F)F)ccc1Cl	4.9	3881	-19.0	x	22.0	10.7	2.3
COc1ccc(-c2cc(C(=O)N3CCN(c4ccccc4OC)CC3)no2)cc1	0.1	5813	-14.0	-4.6	-11.0	-3.8	-3.2
Cc1ccc(C(NC(=O)NCCCN2CCOCC2)=C(Cl)Cl)cc1F	-3.7	4492	-16.4	0.2	-1.2	12.7	-6.4
COc1cc(CN2CCN(CC#Cc3ccccc3)CC2CCO)cc(OC)c1 (configuration not stated)	2.9	x	-5.5	-4.3	0.1	-2.5	2.0
O=C(COC(=O)CSc1ccccc1)NNC(=O)c1ccc([N+](=O)[O-])cc1	3.5	x	-14.9	-1.7	-13.1	-11.7	9.0
COc1ccc(C(=O)NC2CC2)cc1OC1CCN(C/C=C/c2ccccc2)CC1	-4.1	5825	-12.4	-1.8	-22.7	2.4	-13.6
Nc1nc(SCC(=O)NC2CCCCCC2)[nH]c(=O)c1-c1ccccc1	6.4	7293	-22.5	-12.9	-0.2	4.1	3.0
C=CCSc1nnc(NC(=O)c2nc(SCC)ncc2Cl)s1	33.4	11168	-26.4	-18.6	9.1	6.4	-0.3
CC(NS(=O)(=O)c1ccc(CCC(=O)NCC2CCCO2)cc1)c1ccccc1 (configuration not stated)	-1.0	2293	-23.9	6.4	x	x	6.1
CCOC(=O)c1c(CN2CCCCC2)n(C)c2cc(Br)c(OC)cc12	-0.4	4049	-7.6	4.3	x	x	9.9
NC(=O)C(c1ccc(Cl)cc1)c1ncc(C(F)(F)F)cc1Cl (configuration not stated)	0.2	10960	1.7	6.9	6.4	17.4	-4.2
CCCCNC(=S)Nc1cc([N+](=O)[O-])ccc1C	5.5	2576	-15.8	-3.9	-1.9	3.5	7.9
COc1ccc(NC(=O)C2CCN(c3nc(C)cc(C)n3)CC2)cc1	-3.5	9347	-29.3	10.5	-0.9	3.6	-3.8
COc1cc(/C=C2/NC(=O)NC2=O)cc(Br)c1OCc1ccc(C(=O)O)cc1	2.0	4524	-2.5	2.5	7.4	-2.5	1.5
NS(=O)(=O)c1ccc(NC(=O)c2cccc(N3C(=O)c4ccccc4C3=O)c2)cc1	x	4998	-24.7	8.0	x	x	x
CCOc1ccccc1NC(=O)CN1C(=O)COc2ccc(S(=O)(=O)N3CCOCC3)cc21	2.2	4228	-7.5	3.8	1.9	2.4	0.2
Cc1cn(C2OC(COC(=O)c3ccccc3)C(OC(=O)c3ccccc3)C2OC(=O)c2ccccc2)c(=O)[nH]c1=O (configuration not stated)	0.5	8494	-17.8	-1.8	7.2	-0.1	-6.8
CCCCC(NC(=O)Cc1c(C)c2cc3c4c(oc3cc2oc1=O)CCCC4)C(=O)O (configuration not stated)	3.4	3254	-1.5	-3.3	9.3	-0.6	-1.4
O=C(N/N=C/c1cc2ccccc2nc1Cl)c1ccncc1	x	4550	-11.5	1.2	x	x	x
Cc1cc(=O)oc2cc(Oc3ncccc3[N+](=O)[O-])ccc12	6.0	4574	-25.5	3.1	x	x	6.7
O=C1Nc2ccccc2N(O)N1c1ccc(S(=O)(=O)N2CCCCCC2)cc1	3.6	2719	-12.7	-4.2	5.5	12.2	1.4
O=C(CCNS(=O)(=O)c1ccc(Br)s1)Nc1ccc(Cl)cc1	11.5	7446	4.8	-1.3	3.7	5.5	-14.0
CCOc1ccccc1C(=O)N1CCN(C(c2ccccc2)c2ccccc2)CC1	1.2	9259	-25.3	-6.4	8.7	1.3	9.2
O=C(Nc1c[nH]c(=O)[nH]c1=O)c1cc([N+](=O)[O-])cc([N+](=O)[O-])c1	1.9	4035	-26.3	-4.7	-5.8	4.6	-5.7
O=C(c1cc(COc2ccccc2)on1)N1CCCC(CN2CCOCC2)C1 (configuration not stated)	2.6	6089	-24.4	11.5	17.1	6.2	5.4
Cc1ccc[n+](CC(=O)c2ccc(Br)cc2)c1C	2.9	u	-14.2	-3.5	13.7	8.5	0.6
CC(C)=NNc1nc(-c2ccc([N+](=O)[O-])cc2)cs1	-4.9	4862	-43.9	-3.8	11.0	2.5	6.7
CS(=O)(=O)N1N=C(c2ccccc2)CC1c1ccc2c(c1)OCO2 (configuration not stated)	10.8	19512*	-67.8	-9.8	2.7	1.4	7.8
CCc1ccc2c(c1)C(=O)C(=O)N2CC(=O)Nc1ccc(NC(=O)c2ccccn2)cc1	8.0	1933	1.8	-3.7	-7.0	6.9	-2.3
COC(=O)C(NC(=O)CCc1c(C)nc2ncnn2c1C)C(C)C (configuration not stated)	3.0	4017	-25.1	1.6	5.0	4.4	3.7
COc1ccc(-c2cc(C(=O)N3CCN(c4ccccc4F)CC3)c3ccccc3n2)c(OC)c1	-0.8	5128	-9.2	-15.1	9.4	-8.3	10.5
COc1ccc([C@H]2CC(=O)C=C(c3ccc(SC)cc3)C2)cc1	11.4	3631	-18.5	x	-5.7	11.3	5.7
Cc1cc(C)nc(NN=C2CCCC/C2=C\c2ccccc2)n1	0.2	x	x	x	7.4	15.8	3.4
O=C(Nc1nc2ccc(S(=O)(=O)N3CCCC3)cc2s1)C1CCCCC1	3.7	11423	-36.9	20.7	-0.1	1.0	-18.5
COc1ccc2nc3ccccc3nc2c1N	8.7	3756	-62.2	4.3	13.9	7.5	-0.1
Cc1ccn(CC(=O)N2CCCC(N3CCN(c4ccc(F)cc4)CC3)C2)n1 (configuration not stated)	x	5619	-6.5	3.8	x	x	x
CCCn1c(=S)[nH]c2ccccc2c1=O	5.6	4013	-23.7	8.3	2.5	3.5	-4.4

# Single records (already shown). Values in the order: Sa RN4220 lethal | Autofluor counter | PrP UTR inh | BJeLR lethal | Mtb hypoxia inh | Mtb hypoxia inh growth | ugtP null kill
# COc1ccc2nc3ccccc3nc2c1N across the screens: 8.7 | 3756 | -62.2 | 4.3 | 13.9 | 7.5 | -0.1
# Cc1ccn(CC(=O)N2CCCC(N3CCN(c4ccc(F)cc4)CC3)C2)n1 (configuration not stated) across the screens: x | 5619 | -6.5 | 3.8 | x | x | x
# O=C(c1cc(COc2ccccc2)on1)N1CCCC(CN2CCOCC2)C1 (configuration not stated) across the screens: 2.6 | 6089 | -24.4 | 11.5 | 17.1 | 6.2 | 5.4
# O=C1Nc2ccccc2N(O)N1c1ccc(S(=O)(=O)N2CCCCCC2)cc1 across the screens: 3.6 | 2719 | -12.7 | -4.2 | 5.5 | 12.2 | 1.4
